D2 ag = Beta-Arrestin HTS for Positive Allosteric Modulators of the Human D2 Dopamine Receptor: Agonists | hit rate 0.084% among 360,000 | activation, % (no concentration beside the values) | D(2) dopamine receptor (Homo sapiens), P14416 | DiscoveRx PathHunter D2 beta-arrestin, luminescence, 90 min; 100% = 57 uM dopamine signal; in the data active = activation above about 40%; inconclusive = about 15% to 40%; inactive = below about 15%; note: compound concentration not given in the record; the text of the record calls up to 30% inactive
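Agonist mode: compounds alone added to overnight-plated D2 PathHunter cells for 90 min at 37 C, with 57 uM final dopamine (EC100) defining full response. Beta-arrestin recruitment detected by chemiluminescent reagent, read after 1 h at ambient temperature.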
Six1-Eya2 inh = qHTS Assay for Inhibitors of the Six1/Eya2 Interaction. hit rate 0.56% among 360,000. AlphaScreen GST-Six1/His-Eya2 binding, biochemical; hits give low values; control for the full effect not named in the record. activity change, % (concentration not given with the values); in the data active = activity change below about -65%; inconclusive = about -30% to -65%; inactive = above about -30%; note: % is set by controls: 0 for no effect and ±100 for the full control effect
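AlphaScreen with GST-Six1 and His-Eya2 (5X mix: 250 nM and 500 nM), glutathione donor and nickel acceptor beads; buffer 50 mM Tris pH 8.0, 300 mM NaCl, 1 mM TCEP; 1 h at 37 C in the dark.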
D2 potentiator = Beta-Arrestin HTS for Positive Allosteric Modulators of the Human D2 Dopamine Receptor: Potentiators; DiscoveRx D2 beta-arrestin cells, luminescence, 90 min; 100% = 57 uM dopamine signal; hit rate 0.23% among 360,000; AID 624464, 2012; potentiation, % (concentration not given with the values); active = potentiation of 50% or more; inconclusive = 30% to 50%; inactive = 30% or less;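 note: compound concentration not given in the record; tested on top of an EC20 dose of dopamine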
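PathHunter beta-arrestin assay in DiscoveRx D2 cells. Compounds were added with an EC20 of dopamine (50 nM final) for 90 min at 37 deg C. Luminescence was read 1 h after detection reagent, with 57 uM dopamine as the EC100 control.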
Sfp PPTase inh = qHTS Assay for Inhibitors of Bacillus subtilis Sfp phosphopantetheinyl transferase (PPTase); hit rate 3.5% among 310,000; Potency, µM, without a hit: max response, negative = inhibition, hits mostly inhibitors; 4'-phosphopantetheinyl transferase ffp (Bacillus subtilis), Q9F4F7; Biochemical Sfp PPTase activity, qHTS; active = well fitted inhibition curve with a large enough effect; inconclusive = small, poorly fitted or top-dose-only effect, or another doubt; inactive = no such curve, though single readings can be large or run the other way;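 note: the enzyme is Sfp with the accession as filed and its product quenches rhodamine fluorescence; potency is the fitted concentration of half-maximal effect; 0% = enzyme reaction without inhibitor and -100% = no enzyme wells; top concentration of the series not given in the record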
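Fluorescence-quenching assay: 15 nM Sfp-PPTase preincubated 15 min at room temperature with compound, then 5 uM rhodamine-CoA and 12.5 uM BHQ-2-labelled YbbR peptide added. Fluorescence (ex 525/em 598 nm) read at start and after 30 min; difference gives rate.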
TRPV1 PAM = HTS Assay for Compounds that Act as Potentiators of the Vanilloid Receptor 1; hit rate 0.02% among 320,000; Transient receptor potential cation channel subfamily V member 1 (Homo sapiens), Q8NER1; TRPV1-expressing cells, Fluo-8 calcium influx, capsaicin EC20 potentiation; host cell line not named in the record; control for the full effect not named in the record; AID 540277, 2011; potentiation, % at 8.33 µM; active means potentiation above 80%; inconclusive means 30% to 80%; inactive means below 30%; note: 0% is about no effect
Target sequence (Q8NER1 whole entry, looked up): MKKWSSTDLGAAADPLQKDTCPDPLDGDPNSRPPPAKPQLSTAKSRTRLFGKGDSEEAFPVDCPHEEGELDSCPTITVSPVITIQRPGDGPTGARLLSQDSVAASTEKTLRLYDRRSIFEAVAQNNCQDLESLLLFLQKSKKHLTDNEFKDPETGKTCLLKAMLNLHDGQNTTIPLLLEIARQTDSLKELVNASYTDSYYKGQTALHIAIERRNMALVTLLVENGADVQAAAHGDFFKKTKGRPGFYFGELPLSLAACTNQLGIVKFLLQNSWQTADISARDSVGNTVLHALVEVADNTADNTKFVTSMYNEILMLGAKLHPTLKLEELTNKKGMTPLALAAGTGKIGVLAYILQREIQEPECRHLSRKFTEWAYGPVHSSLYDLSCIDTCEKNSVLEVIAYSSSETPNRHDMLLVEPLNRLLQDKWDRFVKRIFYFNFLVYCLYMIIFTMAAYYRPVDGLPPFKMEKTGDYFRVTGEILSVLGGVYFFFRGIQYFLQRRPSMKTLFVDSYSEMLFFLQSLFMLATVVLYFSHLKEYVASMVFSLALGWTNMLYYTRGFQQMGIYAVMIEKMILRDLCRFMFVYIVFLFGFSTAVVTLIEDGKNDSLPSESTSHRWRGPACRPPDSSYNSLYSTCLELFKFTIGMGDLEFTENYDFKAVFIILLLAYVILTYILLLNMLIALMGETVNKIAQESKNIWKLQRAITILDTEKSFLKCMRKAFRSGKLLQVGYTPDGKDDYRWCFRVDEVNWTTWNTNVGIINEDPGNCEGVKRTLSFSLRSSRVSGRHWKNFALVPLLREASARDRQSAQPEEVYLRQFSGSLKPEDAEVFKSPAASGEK
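Cells expressing TRPV1 were dye-loaded with Fluo-8 and read kinetically: 10 s baseline, 3 min after compound (agonist portion), then 2 min after EC20 capsaicin (allosteric enhancer portion). Calcium-bound dye fluorescence at 480/520 nm.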
CtBP-E1A blk = qHTS Assay for Inhibitors of the CtBP/E1A Interaction | CtBP / adenovirus E1A interaction (AlphaScreen) | AlphaScreen GST-E1A/His-CtBP binding, 1536-well; hits give low values; control for the full effect not named in the record | activity change, % (test concentration not listed) | hit rate 0.49% among 340,000 | AID 651724, 2012; in the data active means activity change below about -65%; inconclusive means about -30% to -65%; inactive means above about -30%; note: % is set by controls: 0 for no effect and ±100 for the full control effect; compound concentration not given in the record
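AlphaScreen with 125 nM GST-E1A and 125 nM His-CtBP (5X stocks) in Tris pH 8.0, 300 mM NaCl, BSA, Tween 20, TCEP. Compounds preincubated 2 h at 37 deg C, then glutathione donor/nickel acceptor beads added for 1 h at 37 deg C in dark.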
PINK1 expr mod = A Quantitative High throughput Screen to Identify Chemical Modulators of PINK1 Expression; PINK1 immunofluorescence, high-content cytometry, 24 h; AID 624263, 2012; hit rate 0.2% among 410,000; Potency, µM (top dose mostly 76.6 µM), for the others: at the top dose activation (PINK1 increase), usual class: activators; active = well fitted activation curve with a large enough effect; inconclusive = small, poorly fitted or top-dose-only effect; inactive = flat fitted curve, though single readings scatter; cell line not stated here;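 note: potency is the fitted concentration of half-maximal effect; % of control where 0% means no effect; nearly all actives have a fitted effect of over 65% in size; a mitochondrial uncoupler was the plate control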
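Measures PINK1 amount and localization on or inside mitochondria by immunofluorescence. Stable cells get compounds at 5 concentrations for 24 hours before fixation and staining; CCCP controls included.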
* = called active by the depositor; ? = inconclusive; nt = not tested or not shown; & = joins results of further samples; [ ] = another dose, or the depositor's remark. No enrichment for hits; overall some 3.7% were active at least once.

mol,D2 ag,Six1-Eya2 inh,D2 potentiator,Sfp PPTase inh,TRPV1 PAM,CtBP-E1A blk,PINK1 expr mod
CC1CN(S(=O)(=O)c2ccc(F)cc2)C(C)N1C(=O)N1CCOCC1 (stereo not drawn),-1.3,-3,2,16%,6,7,-1.0%
COc1ccc(/C=N/Nc2nc(C(=O)O)cs2)cc1,-3.1,?,-1,?,-32,?,2.0%
CCN1C(=O)c2cccc3c(S(=O)(=O)N(C(C)=O)c4ccc(OC(C)=O)cc4)ccc1c23,8.8,?,16,nt,nt,nt,3.6%
O=C(CN1C(=O)COc2ccccc21)NCc1ccccn1,-0.9,-2,1,15%,-9,-4,7.1%[38.3 µM]
c1ccc(C2CCC(N3CCN(c4ccccc4)CC3)CC2)cc1 (stereo not drawn),-3.4,-15,-29,2%,-15,-5,?
CNC(=O)c1cccc2cccc(Sc3ccccc3C(=O)O)c12,-3.3,2,-6,7%,-14,4,-1.7%
CCOC(=O)Cc1csc(NC(=O)Cc2ccc(Cl)cc2)n1,6.9,7,-3,7%,3,-3,-1.1%
CCCC[C@H](CN[C@@H](CNC)[C@H](C)CC)NCCC12CCC(CC1)C2,-1.4,13,-13,6%,-3,-12,-1.1%
CC(=O)c1ccc(N2CCN(C(=O)C3CCCN(S(=O)(=O)c4cnc[nH]4)C3)CC2)cc1 (stereo not drawn),-2.2,18,-6,4%,23,3,-1.1%
COC(=O)c1ccccc1NC(=O)CSc1n[nH]c(-c2ccco2)n1,-0.4,3,-1,-10%,11,2,1.0%
COc1ccc(-c2nnc(-c3ccccc3)o2)cc1OC,2.0,5,8,20%,3,nt,-0.1%
CC1CCCN(C(=O)CSc2nnc(-c3cccs3)o2)C1 (stereo not drawn),-2.2,3,-4,4%,29,0,0.0%
Cc1ccc(C(=O)NNC(=O)c2nn(-c3ccc(F)cc3)ccc2=O)cc1,-4.8,-13,-13,23%,16,-3,0.7%
CC1=C(C(=O)N(C)C)CC(CC(=O)NCCCN(C)C)C(=O)N1CCC1=CCCCC1 (stereo not drawn),-7.6,-2,2,nt,nt,4,1.1%
Cc1cccc(N2CCN(S(=O)(=O)c3ccc4c(c3)CCN4C(=O)CCC(=O)O)CC2)c1C,-0.4,-4,1,10%,-2,2,-2.8%[38.3 µM]
O=C(CSc1ccc2ccccc2c1)Nc1ccncc1,4.9,-1,9,11%,-8,1,13µM*
Cc1ccc(/C=C2\SC(=S)N(CCCC(=O)Nc3cc(C)on3)C2=O)cc1,-4.8,0,-11,1%,-3,-1,-0.8%
CC1(C)CC(=O)C=C(c2ccc(-c3cnc4ccccc4c3)cc2)C1=O,-4.1,-4,4,nt,nt,0,0.7%
COC(=O)CNC(=O)CCC(=O)N1CCN(C(c2ccccc2)c2ccccc2)CC1,-3.4,-5,-23,12%,-1,0,0.5%
COc1ccc(CN2CCNC(=O)C2CC(=O)NCCCn2cccn2)c(OC)c1 (stereo not drawn),-2.4,5,-4,11%,-6,0,2.7%
O=C(NCCc1ccco1)c1nn(Cc2ccccc2)c(=O)c2ccccc12,-1.3,-4,-18,-9%,-5,-2,2.9%
CCOC(=O)C1(Cc2ccc(OC)cc2)CCN(C(=O)CN2CCN(CC)CC2)CC1,-0.3,9,-4,9%,4,0,-0.7%
O=C(c1ccccc1Br)N1CCN(c2ccccc2)CC1,-1.4,-1,-10,6%,17,5,17%[38.3 µM]
C[C@H](NC(=O)[C@@H]1CCCN1C(=O)[C@@H]1CCCN1C(=O)c1cccc2ccccc12)c1ccccc1,nt,4,nt,nt,nt,2,-1.0%
CC(C)NC(=O)NS(=O)(=O)c1cnccc1N1CCCCC1,0.5,-1,-3,13%,24,2,1.7%
O=c1oc2ccccc2c(N2CCCCC2)c1CN1CCCCC1,5.9,0,-14,-9%,?,0,0.1%
CS(=O)(=O)N1CCN(C(=O)c2cc(-c3cccs3)nc3ccccc23)CC1,-1.1,-3,4,3%,-13,-2,-2.0%
O=C(CCC(=O)c1cccs1)OCc1nc2ccccc2s1,-2.4,6,1,-11%,20,15,-0.2%
O=C(NCc1ccccc1F)C1CCCN(S(=O)(=O)N2CCOCC2)C1 (stereo not drawn),-3.6,3,-12,13%,1,2,3.1%
O=C(c1cccs1)N1CCN(C(=O)c2cn(-c3ccccc3)nc2-c2ccccc2)CC1,1.8,2,-15,nt,nt,5,1.1%
COc1ccc(NC(=S)N(CCN2CCOCC2)Cc2ccccc2F)cc1,-3.2,8,-10,3%,-9,-18,-1.1%
COc1cc2c(cc1OC)C1=C(C#N)CCC(=NC(=O)c3ccc(Cl)cc3)N1CC2,-1.0,-1,8,16%,-3,2,-2.3%
COc1ccccc1C(=O)n1nc(-c2cccnc2)nc1N,3.9,-6,-2,2%,0,1,3.2%
c1ccc2c(c1)ncn2-c1ncnc2sc3c(c12)CCCC3,-0.1,1,5,-12%,-10,-1,2.6%
Cc1ccc(-c2cc(-c3n[nH]c(=S)o3)c3ccccc3n2)cc1,-1.4,-3,3,-15%,-7,-1,8.6%
CCCOCC1CC2(CC(C)(c3csc(N)n3)OC2=O)C(=O)O1 (stereo not drawn),-0.3,9,4,5%,-33,5,1.9%
O=C(c1cccs1)N(Cc1ccco1)c1nc(-c2ccc(F)cc2)cs1,-3.8,-1,-9,5%,-3,3,4.4%
CC(=O)Nc1cncc(-c2cccc(C(=O)NC3CC3)c2)n1,-1.6,0,-2,nt,nt,-2,0.9%
Cc1cc(=O)[nH]c(/N=C(\N)Nc2ccc3c(c2)OCCO3)n1,3.5,3,-5,-16%,2,4,-1.8%
COc1ccc(CCNC(=S)NCCc2ccc(OC)c(OC)c2)cc1OC,-1.1&5.1,-4&6,-5&-1,9%,-21,-2&-1,1.4%&-0.4%
CC(=O)Nc1cc(-c2cccc(F)c2)cn2c(-c3ccc(S(C)(=O)=O)cc3)cnc12,7.4,-7,0,nt,nt,-5,1.5%
Fc1ccc(CNc2ncnc3c2cnn3-c2ccccc2)cc1,-2.6,-16,15,10%,7,8,12%
Cc1ccc(C2=CN(Cc3ccccc3)CCC2=O)cc1,1.4,18,1,nt,nt,0,1.9%
CN(Cc1ccon1)Cc1cn(C)nc1-c1cccc(Cl)c1,-6.1,-7,1,?,2,0,3.2%
CCCCCC(=O)Nc1ccc2oc(-c3cccnc3)nc2c1,-1.5,-5,5,7%,14,1,1.7%
CCc1ccc(N(C2C=CS(=O)(=O)C2)S(=O)(=O)c2ccccc2)cc1 (stereo not drawn),-0.3,-3,-2,-4%,6,2,-0.2%
C=CCN(C(=O)c1ccccn1)C(C(=O)NCc1ccccc1)c1ccccc1F (stereo not drawn),-1.0,5,-10,-2%,-5,-2,2.4%
CCOc1cc(C(=O)NC2CC(C)(C)NC(C)(C)C2)cc(OCC)c1OCC,-8.3,14,-14,10%,-6,-7,-0.9%
Cn1nc([N+](=O)[O-])nc1Sc1ccc(Cl)cc1,0.0,-7,17,4%,3,-11,0.6%
CCOC(=O)[C@H]1[C@H]2COc3ccc(C)cc3[C@@H]2N2C(=O)CN(CC3CCCO3)C(=O)[C@@]12C (stereo partly drawn),-0.5,3,-7,nt,1,11,-0.2%
O=C(NNC(=O)c1ccc(Cl)cc1Cl)Nc1ccccc1,0.8,1,-4,4%,12,3,0.7%
COc1ccc(-c2cc3c(=O)n(CC(=O)NCc4ccccc4OC)ncn3n2)cc1,0.1,-3,-2,14%,-17,-4,-0.4%
Cc1ccc(Cn2ccc(=O)c(OCc3c(Cl)cccc3Cl)c2C)cc1,-5.2,2,-14,18µM*,?,0,-1.1%
CCC1CCCCN1CCCNC(=O)c1ccc(CS(=O)(=O)Cc2ccccc2F)o1 (stereo not drawn),0.2,9,1,18%,-27,-2,1.8%
Cc1ccc(C)c(Nc2nc3nonc3nc2N2CCOCC2)c1,-5.8,1,-4,16%,-14,9,2.1%
CCc1nc2ccc(C(=O)Nc3cc(-c4ccccc4)ccc3OC)cn2c1N(C)CCCc1ccccc1,-4.5,-2,-11,nt,nt,-2,4.8%
O=C(CN1CCN(C/C=C/c2ccccc2)CC1)NC(=O)NC1CCCCC1,1.0,-5,-15,-4%,-3,-7,1.0%
COc1ccc(-c2noc(CSc3nc4ccccc4c(=O)n3-c3ccc(C)cc3)n2)cc1,-5.1,-5,-4,20%,-1,0,1.3%
COc1ccccc1OCCCC(=O)NC(C)c1ccccc1 (stereo not drawn),-5.8,-15,-12,3%,5,nt,0.9%
COc1ccccc1N1CCN(C(=O)COc2cccc(C)c2C)CC1,0.4,-7,-4,3%,7,4,-0.8%

(list continues)
mol,D2 ag,Six1-Eya2 inh,D2 potentiator,Sfp PPTase inh,TRPV1 PAM,CtBP-E1A blk,PINK1 expr mod
Cc1cccc(OCC(=O)N2CCN(c3nnc(-c4ccccc4)c4ccccc34)CC2)c1,10,-1,3,-5%,-1,nt,0.1%
CNC(=O)COC(=O)c1cc(-c2ccco2)nc2ccccc12,0.8,-9,10,28µM*,-3,23,-0.4%
COc1ccc(CC(=O)Nn2c(-c3ccccc3)nc3ccccc3c2=O)cc1,0.1,8,-2,9%,2,-2,?
CC(=O)Nc1ccc2sc(C)nc2c1,-6.3,0,2,3%,nt,nt,1.5%

Look-ups from the entries so far.
Sfp PPTase inh, CNC(=O)COC(=O)c1cc(-c2ccco2)nc2ccccc12 : 28µM*
CtBP-E1A blk, O=C(CCC(=O)c1cccs1)OCc1nc2ccccc2s1 : 15
